Calb biofilm kill: clotrimazole potentiators killing C. albicans biofilm, primary screen, 4-compound mixtures. C. albicans biofilm persisters + clotrimazole, fluorescence viability; primary screen in compound mixtures of four per well. inhibition, % at 7.6 µM. 120,000 tested, 0.02% active. AID 1242, 2008;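 active = inhibition above 30.3% in the primary screen of four-compound pools, then above 30% when the compound was retested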;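 note: compounds exposed to preformed 24 h biofilms for 48 h; the number belongs to the whole pool; some results filed as inactive read as strong as hits; inactives centre near 12; 0% = biofilm with clotrimazole alone and 100% = kill control; retested singly at about 60 µM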
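Probe or stimulus – Clotrimazole 50 µg/mL co-treatment · System – C. albicans biofilms · Schedule – 24 h biofilm formation, then 48 h compound exposure, 37 °C · Evaluation – percent inhibition of biofilm viability · Technique – 2-h Alamar Blue fluorescence, 535/590 nm excitation/emission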
Numbers without * were called inactive. Some of the compounds tested; the hit share may differ from the screen's.

| mol | Calb biofilm kill |
| --- | --- |
| CC1CCN(C(=O)c2ccc(CSc3ccc(Cl)cc3)cc2)CC1 | 19 |
| Cc1ncccc1C(=O)N1CCCC(CNC(=O)c2ccc(-c3ccccc3)cc2)C1 (configuration not stated) | 3 |
| COc1ccc(/C(N)=N/O)cc1O | 8 |
| CC(=O)Nc1ccc(CN2CCC(CO)(CCOc3ccccc3)CC2)cc1 | 8 |
| O=C(CCC1CCCCC1)NC1=NCCS1 | 11 |
| CCNC(=O)CSc1nnc(-c2cccs2)o1 | 31 |
| O=C(NCc1ccncc1)c1ccc(Cl)c(S(=O)(=O)N2CCCCC2)c1 | 16 |
| O=C(O)c1cc(-c2ccc(N3CCOCC3)cc2)nn1-c1ccccc1Cl | 5 |
| COc1cc(CC(=O)Nc2ccc(Cl)c(C(F)(F)F)c2)cc(OC)c1OC | 16 |
| CCOc1ccc(CN(C)CC(=O)Nc2cccc3ccccc23)cc1OC | 8 |
| O=C(CSc1nc2ccccc2s1)Nc1cc(S(=O)(=O)N2CCOCC2)ccc1O | 12 |
| S=C(NCc1ccccc1)NC1CCCCC1 | -4 |

Filtered by structure, those above with a halogen
| mol | Calb biofilm kill |
| --- | --- |
| CC1CCN(C(=O)c2ccc(CSc3ccc(Cl)cc3)cc2)CC1 | 19 |
| O=C(NCc1ccncc1)c1ccc(Cl)c(S(=O)(=O)N2CCCCC2)c1 | 16 |
| O=C(O)c1cc(-c2ccc(N3CCOCC3)cc2)nn1-c1ccccc1Cl | 5 |
| COc1cc(CC(=O)Nc2ccc(Cl)c(C(F)(F)F)c2)cc(OC)c1OC | 16 |

New compounds follow:
| mol | Calb biofilm kill |
| --- | --- |
| COc1ccc(-c2nc(NC(C)=O)sc2-c2ccccc2)cc1 | 13 |
| COCc1cc(/C=N\NC(=O)COc2ccc(Cl)cc2)ccc1OC | 9 |
| O=C(N(c1ccccn1)c1ccccn1)C12CC3CC(CC(C3)C1)C2 | 11 |
| CC(C)Oc1cccc(C(=O)C2CCCN(C(=O)c3ccnn3C)C2)c1 (configuration not stated) | -3 |
| COCCNC(=O)C(c1ccc(O)cc1)N(C(=O)CCC(=O)Nc1nccs1)c1ccc(C)cc1 (configuration not stated) | 5 |
| CCN(CC)CCOC(=O)/C=C/c1ccccc1 | 18 |
| COc1ccc(/C=N/NC(=O)c2ccncc2)cc1[N+](=O)[O-] | 17 |
| C/C(CC(=O)Nc1ccc(OCc2ccccc2)cc1)=N\NC(=O)C(=O)Nc1cccc(C)c1 | 12 |
| CSc1n[nH]c(=O)n1-c1cccc(Cl)c1 | 21 |
| Cc1cccc(NC(=O)CCSc2nnc(Cc3ccccc3)o2)c1 | 13 |
| O=Cc1cccn1-c1ccc(O)cc1 | 15 |
| CC(=O)Nc1cccc(-c2nc3ccccc3s2)c1 | 1 |
| Cc1ccc(NC(=O)CCN2C(=O)OC(C)(C)C2(C)O)cc1 (configuration not stated) | 11 |
| O=C(/C=C/c1ccc(F)cc1)N1CCCN(C(=O)/C=C/c2ccc(F)cc2)CC1 | 10 |
| OCCC1CN(Cc2cccn2-c2nccs2)CCN1C1CCCCC1 (configuration not stated) | 3 |
| CCN(CC)C(=O)COC(=O)c1ccc(C)c(NC(=O)c2ccco2)c1 | -16 |
| COC(=O)c1ccc(Cl)c(S(=O)(=O)N2CCCC2)c1 | 13 |
| Cc1ccc(S(=O)(=O)Nc2ccccc2CNc2ccccn2)cc1 | 19 |
| COc1ccc(NC(=O)/C=C/c2ccc(OC)c(OC)c2)cn1 | 2 |
| Nc1cc([N+](=O)[O-])ccc1Nc1ccccc1 | 5 |
| Brc1ccc(-c2csc(N/N=C/c3ccco3)n2)cc1 | 16 |
| CCOC(=O)C1C(=O)C=C(c2cccs2)CC1c1ccccc1 (configuration not stated) | -9 |
| O=C(Nc1ccc(Br)cn1)c1cccc2c1-c1ccccc1C2=O | 8 |
| CN(C)CC(O)COC(c1ccc(Cl)cc1)c1ccc(Cl)cc1 (configuration not stated) | 12 |
| COc1cc(NS(=O)(=O)c2ccc(NC(=O)CN3C(=O)c4ccccc4C3=O)cc2)ncn1 | -2 |
| CCC(CC)NC(=O)COC(=O)c1cc(Br)ccc1Cl | 19 |
| Cc1cc(NC(=O)Nc2ccc(Cl)c(Cl)c2)n(-c2ccccc2)n1 | 8 |
| O=C1CCCN1CCCNC(=S)Nc1ccccc1Cl | 23 |
| CCCCCCn1c(Br)nc2c1c(=O)n(C)c(=O)n2C | 10 |
| COc1ccccc1-n1c(CNC(=O)c2ccccc2)nnc1SCC(=O)Nc1nnc(C)s1 | 13 |
| O=C(O)c1ccc(N2C(=O)c3cccnc3C2=O)cc1 | 4 |
| CCOC(=O)NC(=S)c1ccc[nH]1 | 16 |
| Cc1ccc(Cl)cc1NC(=O)C(Cc1ccccc1)N1C(=O)C2C3CCC(C3)C2C1=O (configuration not stated) | 12 |
| O=C(Nc1ccc2ccccc2c1)c1ccc(NS(=O)(=O)c2ccc(Br)s2)cc1 | -12 |
| CC1(OC(=O)C2CCCC2)C(=O)C=C2C=C(c3ccsc3)N(C3CCCCC3)C=C2C1=O (configuration not stated) | 16 |
| CC(C)Cn1c(N)c(C(=O)COC(=O)c2cnc(Cl)c(Cl)c2)c(=O)n(C)c1=O | 16 |
| CCc1ccc(C(=O)/C=C/c2cnn(C)c2C)s1 | 14 |
| COc1ccc(CC(=O)Nc2ccc(S(=O)(=O)Nc3ncccn3)cc2)cc1OC | 10 |
| Cc1ccc(-c2nc3ccsc3c(=O)[nH]2)cc1 | 8 |
| CCOC(=O)C1CCN(C(=O)COC(=O)CNC(=O)c2ccc(OC)cc2)CC1 | 7 |
| COc1ccc(N2CC(O)=C(c3nc(-c4ccc(F)cc4)cs3)C2=N)cc1 | 11 |
| CC1(c2cc(C(F)(F)F)n3nc(C(=O)O)cc3n2)CC1 | 10 |
| CCNC(=S)Nc1cc(OC)c(NC(=O)c2ccco2)cc1OC | 13 |
| CCc1c(C)nc2ncnn2c1NC1CCCc2ccccc21 (configuration not stated) | 4 |
| CC1CCCN(C(=S)Nc2ccc(S(=O)(=O)N3CCCCC3)cc2)C1 (configuration not stated) | 5 |
| COc1cc(S(=O)(=O)N2CCOCC2)ccc1NC(=O)CSc1n[nH]c(=O)[nH]c1=O | 13 |
| CCOC(=O)c1[nH]c2ccc(Br)cc2c1NC(=O)CCN1CCCC(C)(C)C1 | 11 |
| CCOC(=O)c1ccc2[nH]cc(C(C)=O)c(=O)c2c1 | 11 |

Sorted by molecular weight (largest number first): part of the list above.
| mol | Calb biofilm kill |
| --- | --- |
| CCOC(=O)c1[nH]c2ccc(Br)cc2c1NC(=O)CCN1CCCC(C)(C)C1 | 11 |
| COc1ccc(N2CC(O)=C(c3nc(-c4ccc(F)cc4)cs3)C2=N)cc1 | 11 |
| CC1(c2cc(C(F)(F)F)n3nc(C(=O)O)cc3n2)CC1 | 10 |

(next part)
| mol | Calb biofilm kill |
| --- | --- |
| COc1ccccc1NC(=O)Nc1ccccc1C(N)=O | 6 |
| C=C(C)C1CC=C(C)/C(=N\NC(=O)CNc2cccc3ccccc23)C1 (configuration not stated) | 14 |
| O=C(NCC1CCCCC1)c1cc(S(=O)(=O)N2CCCCC2)ccc1N1CCOCC1 | 28 |
| COc1ccc(C(C)=O)cc1COc1ccccc1[N+](=O)[O-] | 29 |
| COC(=O)C/C=C/[C@@H](C)[C@@H](/C=N/OC[C@H]1O[C@H](c2ccccc2)C=C[C@@H]1Oc1ccc(OC)cc1)NS(=O)(=O)c1ccc(C)cc1 | 18 |
| COc1cc(Cl)c(C)cc1NC(=O)c1cccc(OC)c1OC | 12 |
| N#Cc1cc2c(nc1SCc1ccccc1)CCC2 | 6 |
| CC(=O)OC(CC(=O)O)C[N+](C)(C)C (configuration not stated) | 6 |
| Oc1c(Cl)cc(Cl)cc1CNn1cnnc1 | 20 |
| CCOc1ccc(Cl)cc1S(=O)(=O)NCc1ccccn1 | 20 |
| CNC(=O)Nc1ccc2nc(C)sc2c1 | -6 |
| CCCNS(=O)(=O)c1ccc(NC(=O)Cc2cccs2)cc1 | 9 |
| O=C(CSc1nnc(-c2cccc(S(=O)(=O)N3CCCC3)c2)n1-c1ccccc1)Nc1ccc(C(=O)O)cc1 | 3 |
| O=C(CCC(=O)c1ccc(F)cc1)Nc1ccccc1Cl | -12 |
| CC(N=C1NS(=O)(=O)c2ccccc21)C(=O)N1CCc2ccccc2C1 (configuration not stated) | 4 |
| O=C(Nc1ccccc1)C1=C[C@H](c2ccc(C(F)(F)F)cc2)C[C@H](OCc2ccc(CO)cc2)O1 | 18 |
| COc1ccc(OC)c(NC(=O)C(=O)NNC(=O)c2cccs2)c1 | 14 |
| COC(=O)C(C)(C)ONC(=O)Nc1ccccc1Cl | 0 |
| COC(=O)CCSCC(=O)N1N=C(c2ccc(Br)cc2)CC1c1cccc(OC)c1OC (configuration not stated) | 17 |
| CC(=O)n1nc(-c2ccccc2)nc1NCc1ccc(N(C)C)cc1 | -1 |
| COc1ccccc1C1CC(=O)n2c(nc(-c3ccccc3)c2-c2ccccc2)S1 (configuration not stated) | 6 |
| CC1c2nc3ccccc3n2C(CC(=O)NCCCN2CCOCC2)C(=O)N1Cc1ccccc1 (configuration not stated) | 19 |
| Cn1c(CCc2ccccc2)n[nH]c1=S | 17 |
| CCOC(=O)/C(=N/Nc1ccc(Cl)cc1)Sc1nnnn1-c1ccc(C)cc1 | 21 |
| COC(=O)/C(=C\c1ccc2c(c1)c1ccccc1n2C)NC(=O)c1ccccc1 | 1 |
| CCOc1cc(NC(=S)NCC2CCCO2)c(OCC)cc1NC(=O)c1ccc(C)cc1 (configuration not stated) | 13 |
| N#CC(C#N)=Cc1ccc(-c2ccc(S(=O)(=O)N=C(N)N)cc2)o1 | 4 |
| CC1(c2nnc(-c3ccc(F)cc3)o2)CC(c2ccc(Cl)cc2)=NO1 (configuration not stated) | 21 |
| CCC(C)C(=O)OCC1(c2ccc(C)cc2OC(=O)C(C)C)CO1 (configuration not stated) | 7 |
| Cn1c2ccc(F)cc2c2ncn(Cc3ccccn3)c(=O)c21 | 23 |
| Cc1ccc(C(=O)OCC(=O)Nc2sc3c(c2C#N)CCC3)cc1 | 14 |
| O=C(NC1CC1)c1ccc2snnc2c1 | -1 |
| S=c1[nH]nc(CN2CCCC2)n1Cc1ccccc1 | 8 |
| CC1(C(=O)Nc2c(F)c(F)c(F)c(F)c2F)CC1(Br)Br (configuration not stated) | 28 |
| CCc1cc2c(=O)c(-c3ccc4c(c3)OCCO4)coc2c(CN2CCCCC2C)c1O (configuration not stated) | 37 |
| Cc1c(C(=O)c2cccc([N+](=O)[O-])c2)c2ccccn2c1CCC#N | 10 |
| COC(=O)NNC(=O)c1ccc(C)c(Br)c1 | 5 |
| COc1ccc(C(c2nnnn2C2CCCC2)N2CCN(c3ccccc3)CC2)cc1 (configuration not stated) | 11 |
| O=C(NCCNc1cc(Cl)ccc1[N+](=O)[O-])c1ccco1 | 17 |
| C/C(=N\NC(=O)c1ccc([N+](=O)[O-])cc1)c1cc2ccccc2oc1=O | 16 |
| COc1cccc(NC(=O)COC(=O)c2ccc(F)cc2F)c1 | 4 |
| CC1=C(C)C(c2ccccc2)NC(=S)N1 (configuration not stated) | -4 |
| Cc1occc(=O)c1OCc1c(F)cccc1Cl | 26 |
| Cc1cc(C)n2nc(SCCOc3ccc(F)cc3)nc2n1 | 11 |
| CN(C)/C=C/C(=O)C(F)(F)F | 15 |
| O=C1NCCCC1C(=O)N/N=C/c1ccc([N+](=O)[O-])cc1 (configuration not stated) | 19 |
| C/C(=N\NC(=O)C(=O)Nc1cccc(Cl)c1C)c1ccncc1 | 6 |
| COC(=O)c1cccc(Nc2nc(-c3cccnc3)nc3ccccc23)c1 | 7 |
| Cc1[nH]c(=S)c(C#N)c(C)c1Cc1ccccc1 | 21 |
| CN1CCN(C(=O)CN(C)S(=O)(=O)c2ccc3ccccc3c2)CC1 | 5 |
| O=C(N[C@H](C(=O)O)c1ccccc1)C1CCC(Cn2nnc3ccccc3c2=O)CC1 (some centres not stated) | 7 |
| C=CCNC(=S)N/N=C(\C)c1ccc(OC)cc1 | 17 |
| N#CC(c1ccccc1)N(CCCCl)C(=O)c1ccccc1 (configuration not stated) | 12 |
| O=c1nc2s/c(=C\c3ccc(-c4ccccc4[N+](=O)[O-])o3)c(=O)n2nc1-c1ccccc1 | 18 |
| COc1ccc(C2Nc3ccccc3C(=O)N2NS(C)(=O)=O)cc1 (configuration not stated) | 9 |
| CC(C)=NN/C(N)=N/C(=S)Nc1ccc(C)cc1 | 16 |
| Cc1cc2ncc(-c3cccc(Cl)c3)cn2n1 | 8 |
| O=C(Nc1nc2c(s1)CCCC2)c1cccc(S(=O)(=O)N2CCCc3ccccc32)c1 | 13 |
| CN1CCN(C(c2cc3cc4c(cc3[nH]c2=O)OCCO4)c2nnnn2C2CCCC2)CC1 (configuration not stated) | 10 |
| CCOC(=O)c1cc(=O)c2c([N+](=O)[O-])ccc(OC)c2o1 | 13 |

Further results follow.
| mol | Calb biofilm kill |
| --- | --- |
| O=C(N/N=C/c1ccc(OC(F)F)cc1)C1=COCCO1 | 13 |
| COc1cc(/C=C/c2noc(-c3ccccc3O)n2)cc(OC)c1OC | 19 |
| NC(=O)C1=C[C@H](c2ccc3c(c2)OCO3)C[C@H](OCc2ccc(CO)cc2)O1 | 15 |
| Cc1cc(C)c2c(c1)/C(=N/Nc1ccc(S(N)(=O)=O)cc1[N+](=O)[O-])CCC2 | 24 |
| COc1ccc(CCN(Cc2cccs2)S(=O)(=O)c2ccc(S(=O)(=O)N(C)C3CCCCC3)cc2)cc1OC | 13 |
| C=CCn1cnc2c(nnn2-c2ccc(C)c(C)c2)c1=O | 1 |
| CC1CCCCN1S(=O)(=O)c1cnc(Cl)c(Br)c1 (configuration not stated) | 21 |
| O=c1c(Br)c(NCc2ccccc2)cnn1-c1ccc(F)cc1 | 13 |
| Nc1nonc1-n1nnc(C(=O)N/N=C/c2ccccc2)c1CSc1ccc(Cl)cc1 | 11 |
| O=C(COC(=O)c1cc(=O)[nH]c(=O)[nH]1)NCc1ccccc1 | 20 |
| c1ccc(-c2ccc(-c3ccccn3)s2)nc1 | 19 |

Screening data from PubChem.
